Bioassay records from PubChem.
miR-21 FLuc: qHTS Assay for Modulators of miRNAs and/orActivators of miR-21; HeLa miR-21 FLuc reporter, luciferase, 48 h; Potency, µM (titrated, usually from 38.3 µM), without a hit: at the highest dose reporter change, positive = more light; 340,000 tested, under 10 active; active = well fitted rising curve with a large enough effect; inconclusive = small, poorly fitted or top-dose-only effect; inactive = no such curve, though single readings can be large or run the other way;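 note: % of control where 0% means no effect; miR-21 action dims this reporter so a rising signal means less miR-21 action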
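Compounds were titrated across several concentrations (up to approximately 40 uM) and incubated 48 hours with HeLa miR-21-FLuc reporter cells (miR-21 target sequence downstream of FLuc, endogenous miR-21). Readout was firefly luciferase luminescence after lytic detection reagent.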
The depositor's hits bear a star; ? = inconclusive.

SMILES	miR-21 FLuc
CCc1ccc(C(=O)c2cn(CC(=O)Nc3cc(C)ccc3C)c3nc(C)ccc3c2=O)cc1	2%
Cc1ccc(C)c(Cn2c(SCC(=O)NCc3ccccc3)nc3ccccc32)c1	2%
COc1ccc(CNC(=O)c2ccc3c(O)c(S(=O)(=O)c4ccccc4)c(=O)[nH]c3c2)cc1	-1%
Cc1cc(F)ccc1S(=O)(=O)NCC(c1ccco1)S(=O)(=O)c1cccs1 (stereo not drawn)	-1%
COc1ccc(Br)cc1CNC(=O)Cn1c(=O)c2cccn2c2ccc(F)cc21	4%
COc1ccc(CNC(=O)Cn2nc3c(cc2=O)CCCC3)cc1	-1%
COc1cc(CN(C(=O)Nc2ccccc2)c2ccccn2)cc(OC)c1OC	3%
O=[N+]([O-])c1ccc(O)c(-c2ccnc3cc(-c4ccccc4)nn23)c1	26%
CCOc1ccccc1N(CC)C(=O)c1cc2ccc3cccnc3c2[nH]1	-13%
COc1ccc(NC(=O)Cn2c(=O)c3cccn3c3ccccc32)cc1Cl	1%
CCOC(=O)c1c(NC(=O)c2ccc(Br)cc2)sc2c1CCCC2	-1%
Cc1ccc(CCNC(=O)c2sc3nc4n(c(=O)c3c2C)CCCC4)cc1	-1%
COc1ccc(S(=O)(=O)c2nnn(-c3ccc(C)c(Cl)c3)c2C)cc1	16%
COC(=O)CN1C(=O)CSc2ccc(S(=O)(=O)Nc3cccc(Br)c3)cc21	0%
CC(C)c1ccc(NC(=O)N2CCN(c3ccc(Cl)c(Cl)c3)CC2)cc1	19%
CCOc1ccc(CNC(=O)c2sc3nc(C)cc(C)c3c2-n2cccc2)cc1	-21%
COc1ccc(CNC(=O)Cc2c(C)c3c(cc(C)c4c(C)c(C)oc43)oc2=O)cc1OC	7%
Cc1ccc(Cl)cc1NC(=O)c1ccc2snnc2c1	-2%
CCN(CC)CCCNC(=O)Cn1nc(N2CCN(c3ccccc3OC)CC2)ccc1=O	2%
Cc1ccc(NC(=O)[C@@H](c2ccccc2)N2Cc3ccccc3C2=O)cc1F	3%

Some of these compounds in order of molar mass, smallest number first:
SMILES	miR-21 FLuc
Cc1ccc(NC(=O)[C@@H](c2ccccc2)N2Cc3ccccc3C2=O)cc1F	3%
CC(C)c1ccc(NC(=O)N2CCN(c3ccc(Cl)c(Cl)c3)CC2)cc1	19%
CCOc1ccc(CNC(=O)c2sc3nc(C)cc(C)c3c2-n2cccc2)cc1	-21%

Going on with the list:
SMILES	miR-21 FLuc
O=C(/C=C/c1ccccc1)Nc1cc(-c2nc3ccccc3o2)ccc1Cl	-42%
CCOC(=O)c1c(-c2ccc(C)cc2)csc1NC(=O)c1cc(-c2ccc(OC)cc2)on1	-2%
Cc1ccc(-n2c(=O)c3c(c4cc(C)ccc4n3C)n(CC(=O)Nc3cc(C)cc(C)c3)c2=O)cc1	0%
COc1ccc(OC)c(NC(=O)c2cc(C3CC3)nc3c2c(C)nn3-c2ccc(C)cc2)c1	0%
CCc1cccc(C)c1NC(=O)CSc1nc2c(c(=O)[nH]1)CCC2	1%
Cn1cc(C(=O)NCCc2ccccc2)c(=O)c2cc(S(=O)(=O)N3CCCCC3)ccc21	-8%
CC1CCN(c2cc3c(cc2F)c(=O)c(S(=O)(=O)c2ccc(Cl)cc2)cn3C)CC1	-2%
N#Cc1ccccc1NC(=O)C(=O)NCC(c1ccc2c(c1)OCO2)N1CCN(c2ccccc2)CC1 (stereo not drawn)	-3%
COc1ccc(C(=O)Nc2cccc(-c3cn4ccsc4n3)c2)cc1OC	19%
Cc1cc(C)c(NC(=O)CCN2CCCCC2)c(C)c1	-4%

Single entries from the results shown.
Under miR-21 FLuc, COc1ccc(C(=O)Nc2cccc(-c3cn4ccsc4n3)c2)cc1OC is listed with 19%
Under miR-21 FLuc, N#Cc1ccccc1NC(=O)C(=O)NCC(c1ccc2c(c1)OCO2)N1CCN(c2ccccc2)CC1 (stereo not drawn) is listed with -3%

Four of the compounds above, field by field:
CCOC(=O)c1c(-c2ccc(C)cc2)csc1NC(=O)c1cc(-c2ccc(OC)cc2)on1
  miR-21 FLuc = -2%
Cc1ccc(-n2c(=O)c3c(c4cc(C)ccc4n3C)n(CC(=O)Nc3cc(C)cc(C)c3)c2=O)cc1
  miR-21 FLuc = 0%
COc1ccc(OC)c(NC(=O)c2cc(C3CC3)nc3c2c(C)nn3-c2ccc(C)cc2)c1
  miR-21 FLuc = 0%
CCc1cccc(C)c1NC(=O)CSc1nc2c(c(=O)[nH]1)CCC2
  miR-21 FLuc = 1%

Continuation.
SMILES	miR-21 FLuc
Cc1ccc(-n2nc(C(=O)NCCN(C)C)c(=O)n(C)c2=O)cc1	-1%
FC(F)(F)c1cc(Nc2nc3ccccc3c3nncn23)ccc1Cl	6%
COc1cccc(C(=O)Nc2ccccc2-c2nnc(-c3cccc(OC)c3)o2)c1	-3%
CCOc1ccc(S(=O)(=O)N2CCN(c3cc(Cl)ccc3Cl)CC2)c2ccccc12	1%
COc1ccccc1Nc1nn2c(=O)c3ccc(C(=O)NCc4cccs4)cc3nc2s1	?
Cc1ccc(NC(=O)CSc2ncnc3c2sc2ccccc23)cc1C	1%
COc1ccc(Nc2ncnc3scc(-c4ccc(F)cc4)c23)cc1	-4%
COC(=O)c1ccccc1NC(=O)Cn1c(=O)n(CCCCC(=O)NCc2ccc3c(c2)OCO3)c(=O)c2ccccc21	0%
COc1ccc(N2CCN(c3ccc(-c4nc(-c5cccc(C)c5)no4)cc3[N+](=O)[O-])CC2)cc1	-48%
Cc1ccc2oc(-c3ccc(NC(=O)c4cccc(F)c4)c(C)c3)nc2c1	-64%
Cn1c(=O)c2sccc2n2c(CCCC(=O)Nc3ccc(Oc4ccccc4)cc3)nnc12	10%
Cc1cccc(CC(=O)N2CC(=O)Nc3ccc(F)cc3C2c2ccccc2)c1 (stereo not drawn)	9%
Cc1ccc(CNC(=O)C2CCN(C(=O)c3ccc(-n4ccc5ccccc54)s3)CC2)cc1	-14%
O=C(NCc1ccccc1)c1nn(-c2ccccc2)nc1CO	27%
COc1ccc(S(=O)(=O)NCCSc2nnnn2-c2ccccc2)cc1	1%
CCOC(=O)c1c(N)n(-c2cccc(C)c2C)c2nc3ccccc3nc12	-2%
Cc1cccc(-n2cnc3cc(C(=O)NCc4ccccc4Cl)ccc32)c1	11%
O=C1CC(c2nnc(Cc3ccccc3Cl)o2)CN1c1ccccc1 (stereo not drawn)	-1%
COC(=O)c1ccc(NC(=O)C2CCN(c3ncnc4c3nc3n4CCCCC3)CC2)cc1	-10%
CCOc1ccccc1N1CC(c2nc3ccccc3n2CCCOc2ccc(OC)cc2)CC1=O (stereo not drawn)	-6%

Pulled by structure from the list above, 6 records:
SMILES	miR-21 FLuc
Cc1cccc(CC(=O)N2CC(=O)Nc3ccc(F)cc3C2c2ccccc2)c1 (stereo not drawn)	9%
CCOC(=O)c1c(N)n(-c2cccc(C)c2C)c2nc3ccccc3nc12	-2%
COC(=O)c1ccc(NC(=O)C2CCN(c3ncnc4c3nc3n4CCCCC3)CC2)cc1	-10%
CCOc1ccccc1N1CC(c2nc3ccccc3n2CCCOc2ccc(OC)cc2)CC1=O (stereo not drawn)	-6%
COc1ccc(S(=O)(=O)NCCSc2nnnn2-c2ccccc2)cc1	1%
Cc1ccc(CNC(=O)C2CCN(C(=O)c3ccc(-n4ccc5ccccc54)s3)CC2)cc1	-14%

(further entries)
SMILES	miR-21 FLuc
Cc1ccc2onc(CC(=O)Nc3cc(F)ccc3F)c2c1	-4%
Cc1ccc(-n2ccnc(NCCc3ccc(S(N)(=O)=O)cc3)c2=O)cc1C	4%
COc1cccc(-c2ccc3c(N)c(C(=O)Nc4cc(C(F)(F)F)ccc4OC)sc3n2)c1	-8%
O=C(CCCN1C(=O)c2cccnc2Oc2ccc(Cl)cc21)NCc1ccc(F)cc1	1%
CCOc1ccc(C(CC(=O)Nc2ccc(C(=O)OC)cc2)N2Cc3ccccc3C2=O)cc1OC (stereo not drawn)	0%
CCCn1c2ccccc2c2cnn(CC(=O)NCCCN(CC)c3ccccc3)c(=O)c21	?
COc1cc(OC)cc(-c2cc3nc(C)c(CCC(=O)Nc4ccccc4OC)c(C)n3n2)c1	?
CCOc1cc(C(=O)Nc2cccc(-c3nc4ccccc4o3)c2)cc(OCC)c1OCC	4%
O=C(CCC1N=C2c3ccccc3N=C(SCC(=O)NCCc3ccccc3)N2C1=O)NCc1ccc(F)cc1 (stereo not drawn)	3%
Cc1nc(SCC(=O)Nc2ccc(C(=O)O)cc2)n[nH]1	-1%
COc1ccc(C(=O)NCC(=O)OCc2cc(=O)n3nc(C4CCCCC4)sc3n2)cc1	-10%
Cc1cc(Cl)ccc1NC(=O)CN1C(=O)C(=O)c2ccccc21	11%
COCCCN1CN=C(NS(=O)(=O)c2ccc(NC(C)=O)cc2)NC1	-2%
Cc1ccc(CNC(=O)CN2C(=O)CCn3nc(-c4ccccc4)cc32)cc1	5%
CCN(CC)S(=O)(=O)c1ccc2c(c1)N(CC(=O)N(C)Cc1ccccc1)C(=O)CO2	6%
Cc1ccc(NC(=O)N2CCN(c3cc(-c4noc(C)n4)ccc3C)CC2)c(C)c1	-2%
CCC1CCCCN1C(=O)Cn1c(=O)oc2cc(S(=O)(=O)N3CCCCC3)ccc21 (stereo not drawn)	-3%
COc1ccc(N2CCN(S(=O)(=O)c3ccc(CC(C)C)cc3)CC2)cc1	0%
Cc1cccc(N2CCN(c3cc(C)nc4c(-c5ccc(Cl)cc5)c(C)nn34)CC2C)c1 (stereo not drawn)	-1%
COc1ccc(C2C=C(c3ccccc3)Nc3nc(NS(=O)(=O)c4ccccc4)nn32)cc1 (stereo not drawn)	-34%
COc1ccc(CCNC(=O)CCS(=O)(=O)c2cc(Br)cc3c2N(C(C)=O)CC3)cc1OC	-5%
Fc1cccc(CSc2nc(NCCc3ccccc3)c3ccccc3n2)c1	2%
O=c1cc(-c2ccccc2)n2c(SCc3c(F)cccc3Cl)nnc2[nH]1	-6%
COc1ccc(-n2c(SCC(=O)N3CCC(C)CC3)nc3c([nH]c4ccccc43)c2=O)cc1	-4%
O=C(Cn1c2ncccc2c(=O)n1-c1ccccc1)Nc1ccc(F)c(F)c1	-7%
COc1cc(-c2noc(CN3CCN(c4ccccc4)CC3)n2)cc(OC)c1OC	-4%
Cc1ccc(SCc2nc(-c3ccc(C(=O)NCc4ccccc4Cl)cc3)oc2C)cc1	10%
CCOc1ccccc1CNc1ncnc2c1nc1n2CCCC1	19%
Cc1ccc2c(c1)c1c(c(=O)n(-c3ccccc3C)c(=O)n1CC(=O)NCc1ccccc1)n2C	-1%
CCOc1ccccc1NC(=O)C(=O)NCC(c1cccnc1)N1CCN(c2ccccc2)CC1 (stereo not drawn)	19%
CCN(CC)CCN(C(=O)c1ccco1)c1nc2ccc(Br)cc2s1	-11%
CCOC(=O)c1c(C)oc2ncnc(Nc3cccc(C(F)(F)F)c3)c12	-3%
CN1CCc2c(sc3c2C(=O)NC(c2ccc(OC(=O)c4ccccc4)cc2)N3)C1 (stereo not drawn)	-62%
COc1ccc(CCNC(=O)c2ccc(Cn3c(=O)c4ccccc4n(CC(=O)C(C)(C)C)c3=O)cc2)cc1OC	0%
CC(=O)N1CCc2c(sc3c2c(=O)n(-c2ccccc2)c(=O)n3CC(=O)Nc2cccc(C)c2)C1	1%
COc1cccc(C(=O)NCC(c2ccc(N(C)C)cc2)N2CCc3ccccc32)c1 (stereo not drawn)	27%
Cc1cccc(N2CCN(C(=O)c3cc4ccc5cccnc5c4[nH]3)CC2C)c1 (stereo not drawn)	0%
CCc1ccc(-c2[nH]nc3nc(-c4ccc(OC)cc4)cc(C(=O)NCCCOC)c23)cc1	-23%
CCOc1cc(C(=O)NCC(c2ccc(N(C)C)cc2)N2CCOCC2)cc(OCC)c1OCC (stereo not drawn)	-4%
Cc1csc2nc(COC(=O)c3ccccc3NC(=O)c3ccccc3Cl)cc(=O)n12	-7%
CC1CCN(C(=O)CSc2nnc(-c3ccccc3Cl)o2)CC1	-28%
CCOC(=O)c1c(NC(=O)COc2cccc(C)c2C)sc(C(C)=O)c1C	-10%
CCCSc1nc2c(c(=O)[nH]1)C(c1ccc(F)cc1F)CC(=O)N2 (stereo not drawn)	-2%
Cc1c(NC(=O)c2sc3ccccc3c2Cl)cccc1-c1nc2ccccc2o1	-3%
Cc1cc(Nc2cccc(Cl)c2)nc2ccc(NC(=O)Cc3cccc(C(F)(F)F)c3)cc12	?
Cc1sc2ncn(CC(=O)N(C)c3ccc(C(C)C)cc3)c(=O)c2c1S(=O)(=O)N1CCC(C)CC1	?
CC1CCN(c2ccc(-c3cccc(NS(=O)(=O)c4cccs4)c3)nn2)CC1	-1%
CCc1c(C)sc2c1CCN(Cc1ccccc1)C2c1ccccc1 (stereo not drawn)	?
CCOc1ccc(NC(=O)Cn2c(=O)c(CNc3ccccc3)cc3cc4c(cc32)OCCO4)cc1	1%
Cc1ccc(Cl)cc1N1CCN(C(=O)C2CCCN(S(=O)(=O)c3ccc(Br)s3)C2)CC1 (stereo not drawn)	0%

Remaining list, next part.
SMILES	miR-21 FLuc
Cc1csc2nc(CCNS(=O)(=O)c3ccccc3)cn12	3%
COc1ccc(NC(=O)N(Cc2nnc3n2CCCCC3)c2ccc(OC)c(Cl)c2)cc1	-4%
Cn1c(=O)c2c(nc(NCc3ccccc3)n2Cc2ccccc2Cl)n(C)c1=O	2%
CCOc1ccccc1NC(=O)c1cnn2c(C(F)F)cc(-c3ccccc3)nc12	?
Nc1c(-c2nc(-c3ccc(Cl)cc3)no2)nnn1-c1ccc(C(F)(F)F)c(Cl)c1	-12%
Cn1c(SCC(=O)Nc2nc3ccccc3s2)ncc(C(=O)Nc2ccc(F)cc2)c1=O	-18%
CCCN(C(=O)NCc1noc2ccc(C)cc12)c1ccc(Cl)c(Cl)c1	0%
COc1ccc(NC(=O)c2ccco2)cc1NC(=O)c1ccc(C)c(C)c1	-2%
Cc1ccc(-c2cc(C(=O)Nc3c(C(=O)c4ccccc4)oc4ccccc34)no2)cc1F	-2%
COc1ccc(S(=O)(=O)N(CCc2ccccc2)CC(=O)Nc2ccc(C)c(C)c2)cc1OC	?
CCS(=O)(=O)c1ncc(N(Cc2cccc(F)c2)Cc2ccco2)c(C(=O)Nc2ccccc2Cl)n1	-2%

Some of the compounds tested. The share of hits here may be higher or lower than overall.
